gsp antag = qHTS for Antagonists of gsp, the Etiologic Mutation Responsible for Fibrous Dysplasia/McCune-Albright Syndrome: qHTS. AID 624288, 2012. gsp-mutant cells, cAMP HTRF, 30 min; control for the full effect not named in the record. actives 0.4% (n = 340,000). Potency, µM (titrated, usually from 76.9 µM), for inactives: at the top dose activity change, negative = inhibition, most hits filed as inhibitors; active = falling curve of any shape with a large fitted effect; inconclusive = falling curve, mostly with a smaller effect; inactive = flat or rising curve; cell line not stated here;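 note: intracellular cAMP measured with PDE inhibitor Ro 20-1724 present during compound exposure; potency is the fitted concentration of half-maximal effect; % is set by controls: 0 for no effect and ±100 for the full control effect; nearly all actives have a fitted effect of over 65% in size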
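Measurement of cellular cAMP by homogeneous time-resolved fluorescence following a 30 min compound exposure at 37C. The PDE inhibitor […] was present throughout; the assay buffer was DPBS with 0.05% BSA and 0.005% Tween 20.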
D2 potentiator = Beta-Arrestin HTS for Positive Allosteric Modulators of the Human D2 Dopamine Receptor: Potentiators; D(2) dopamine receptor (Homo sapiens), P14416; DiscoveRx D2 beta-arrestin cells, luminescence, 90 min; 100% = 57 uM dopamine signal; potentiation, % (concentration not given with the values); actives 0.23% (n = 360,000); active = potentiation of 50% or more; inconclusive = 30% to 50%; inactive = 30% or less;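 note: compound concentration not given in the record; tested on top of an EC20 dose of dopamine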
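D2 cells co-treated with compound plus 50 nM dopamine (EC20) for 90 min at 37 deg C to detect potentiation. Beta-arrestin recruitment was read as enzyme-fragment luminescence after 1 h at ambient temperature. Full response was set by 57 uM dopamine.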
gsp ag = qHTS for Agonist of gsp, the Etiologic Mutation Responsible for Fibrous Dysplasia/McCune-Albright Syndrome: qHTS; Potency, µM (series often up to 76.9 µM), for the others: at the highest dose activation (cAMP increase), usual class: activators; actives 0.13% (n = 340,000); AID 624287, 2012; gsp mutant cells, cAMP HTRF, 30 min; control for the full effect not named in the record; active = well fitted activation curve with a large enough effect; inconclusive = small, poorly fitted or top-dose-only effect, or another doubt; inactive = no such curve, though single readings can be large or run the other way; cell line not stated here;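 note: phosphodiesterase inhibitor Ro 20-1724 added with compounds to block cAMP breakdown; potency is the fitted concentration of half-maximal effect; nearly all actives have a fitted effect of over 60% in size; about a fifth of the inactives were tested at one dose only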
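Cells in DMEM/10% FBS with G418 were pretreated with compounds in DMSO plus […] (300 uM stock) for 30 min at 37C. cAMP was measured by HTRF (cAMP-d2 plus anti-cAMP antibody-K) after 30 min at room temperature.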
D2 ag = Beta-Arrestin HTS for Positive Allosteric Modulators of the Human D2 Dopamine Receptor: Agonists; activation, % (concentration not given with the values); actives 0.084% (n = 360,000); DiscoveRx PathHunter D2 beta-arrestin, luminescence, 90 min; 100% = 57 uM dopamine signal; D(2) dopamine receptor (Homo sapiens), P14416; AID 624465, 2012; in the data active = activation above about 40%; inconclusive = about 15% to 40%; inactive = below about 15%; note: compound concentration not given in the record; the text of the record calls up to 30% inactive
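DiscoveRx PathHunter D2 beta-arrestin cells (2,100/well) attached overnight, then compound-stimulated 90 min at 37 C in HBSS/10 mM HEPES/0.1% Tween-20 buffer; beta-galactosidase complementation read by luminescence after 1 h at ambient temperature. Dopamine 57 uM final (EC100) as control.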
Six1-Eya2 blk = qHTS Assay for Inhibitors of the Six1/Eya2 Interaction; Homeobox protein SIX1 (Homo sapiens) + Protein phosphatase EYA2 (Homo sapiens), …; actives 0.56% (n = 360,000); AlphaScreen GST-Six1/His-Eya2 binding, biochemical; stronger effect = lower value; control for the full effect not named in the record; activity change, % (concentration not given with the values); in the data active = activity change below about -65%; inconclusive = about -30% to -65%; inactive = above about -30%; note: % is set by controls: 0 for no effect and ±100 for the full control effect
Target sequence (O00167 whole entry, looked up): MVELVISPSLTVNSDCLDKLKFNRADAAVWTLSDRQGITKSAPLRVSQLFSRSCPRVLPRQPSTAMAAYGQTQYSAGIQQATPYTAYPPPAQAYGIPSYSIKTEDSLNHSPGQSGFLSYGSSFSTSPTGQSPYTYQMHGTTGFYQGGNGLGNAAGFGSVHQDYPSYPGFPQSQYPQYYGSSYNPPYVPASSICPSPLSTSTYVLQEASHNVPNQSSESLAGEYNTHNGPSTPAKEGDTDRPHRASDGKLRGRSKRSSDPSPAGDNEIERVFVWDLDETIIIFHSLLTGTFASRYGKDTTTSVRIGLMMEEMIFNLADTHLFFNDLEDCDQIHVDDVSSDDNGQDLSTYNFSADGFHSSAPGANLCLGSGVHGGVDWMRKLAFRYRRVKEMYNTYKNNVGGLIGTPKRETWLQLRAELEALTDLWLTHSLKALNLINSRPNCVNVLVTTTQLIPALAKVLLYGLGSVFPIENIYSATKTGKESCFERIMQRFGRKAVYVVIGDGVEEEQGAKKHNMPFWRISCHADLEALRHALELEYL
Target sequence (Q15475 whole entry, looked up): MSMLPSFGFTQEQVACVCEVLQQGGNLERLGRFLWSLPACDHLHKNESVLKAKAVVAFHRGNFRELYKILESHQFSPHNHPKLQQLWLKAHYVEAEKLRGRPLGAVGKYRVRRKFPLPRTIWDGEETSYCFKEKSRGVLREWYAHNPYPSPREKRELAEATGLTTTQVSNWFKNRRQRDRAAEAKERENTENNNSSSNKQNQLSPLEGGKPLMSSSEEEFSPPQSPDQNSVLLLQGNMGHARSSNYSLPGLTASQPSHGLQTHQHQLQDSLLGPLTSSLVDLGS
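AlphaScreen with GST-Six1 and His-Eya2 (5X mix: 250 nM and 500 nM), glutathione donor and nickel acceptor beads; buffer 50 mM Tris pH 8.0, 300 mM NaCl, 1 mM TCEP; 1 h at 37 C in the dark.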
CtBP-E1A inh = qHTS Assay for Inhibitors of the CtBP/E1A Interaction. activity change, % (concentration not given with the values). actives 0.49% (n = 340,000). CtBP / adenovirus E1A interaction (AlphaScreen). AlphaScreen GST-E1A/His-CtBP binding, 1536-well; stronger effect = lower value; control for the full effect not named in the record; in the data active means activity change below about -65%; inconclusive means about -30% to -65%; inactive means above about -30%; note: % is set by controls: 0 for no effect and ±100 for the full control effect
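GST-E1A and His-tagged CtBP (125 nM each as 5X stock) were preincubated with pin-transferred compound for 2 h at 37 °C in the dark, then glutathione donor and nickel acceptor beads were added for 1 h before AlphaScreen reading.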
An asterisk follows results filed as active; u = inconclusive; x = not tested or not shown; [ ] = another dose, or the depositor's remark. Hits appear at their usual frequency (roughly 1.4% active in at least one column).

| molecule | gsp antag | D2 potentiator | gsp ag | D2 ag | Six1-Eya2 blk | CtBP-E1A inh |
| --- | --- | --- | --- | --- | --- | --- |
| CC1(C(=O)NCc2cccc3ccccc23)CCN1CCc1ccccc1 (configuration not stated) | x | -19 | x | -4.4 | -5 | -1 |
| Cn1nc(NC(=O)C(C)(C)C)c2c(F)cccc21 | 7% | -3 | -31%[inhibitor] | -3.9 | -5 | -19 |
| CCc1ccc2nc(N(CCCN(C)C)C(=O)c3ccc4c(c3)OCCO4)sc2c1 | 16% | -32 | -43% | 6.0 | -7 | -15 |
| COc1ccc(C(=O)CC(=O)c2ccccc2)cc1 | -9% | -12 | -19%[15.4 µM] | -6.4 | 18 | 23 |
| COc1cccc(C2c3cc4c(cc3OC(NNC(N)=O)C2C)OCO4)c1O (configuration not stated) | 1% | -8 | u | 9.2 | -7 | -5 |
| COc1ccc(-c2ccc3c(c2)C2CC3CCN2Cc2ccc(OC(F)(F)F)cc2)cc1 (configuration not stated) | 8% | -11 | x | -2.1 | -20 | -17 |
| CC(C)c1cc(C(=O)Nc2ccc3c(c2)OCO3)no1 | -2% | -6 | 26% | 6.6 | -14 | 0 |
| COCCn1c(SCC(=O)NC2CCCCC2)nnc1-c1ccncc1 | 9% | -1 | -21% | 3.2 | 0 | -11 |
| COc1ccccc1Nc1cc(C)nc2c(C)ccc([N+](=O)[O-])c12 | -2% | 23 | 0% | -0.1 | u | -15 |
| CC(=O)N1CCCc2cc(S(=O)(=O)N3CCN(C4CCCCC4)CC3)ccc21 | -7% | -17 | 5% | -3.0 | -2 | -1 |
| O=C(COC(=O)c1cnc(Cl)c(Cl)c1)Nc1cccc(S(=O)(=O)N2CCOCC2)c1 | u | 1 | 1% | 4.1 | -6 | -2 |
| OCCC1CN(Cc2ccccc2-c2ccco2)CCN1Cc1ccsc1 (configuration not stated) | -3% | -24 | 0% | -3.2 | 3 | x |
| CC(=O)Nc1ccc(C(=O)OCC(=O)N(c2ccccc2)C2CCS(=O)(=O)C2)cc1 (configuration not stated) | 10% | 5 | 28% | -1.2 | 8 | x |
| CC1=C(C(=O)N2CCCCCC2)CC(CC(=O)NC2CCCC2)C(=O)N1Cc1ccccc1 (configuration not stated) | x | 0 | x | -1.9 | 0 | 1 |
| COc1ccc(/C=C/C(=O)c2cc(F)ccc2OC(=O)c2ccccc2OC)cc1OC | x | -5 | 26%[15.4 µM] | 0.3 | -4 | 21 |
| CC(C)COc1ccc(C(=O)Nc2ncn[nH]2)cc1 | -2% | -4 | 5%[15.4 µM] | 2.5 | -21 | 2 |
| C=CCSC(CC)(CC)C(N)=O | 11% | -5 | 23%[15.4 µM] | -4.7 | 3 | 7 |
| O=S(=O)(N/N=C/c1ccc(N2CCOCC2)cc1)c1ccc(Br)cc1 | -13% | -8 | 13% | -2.2 | -2 | 11 |
| CCOC(=O)Cc1csc(NC(=O)c2cc(C)cc(C)c2)n1 | -9% | -4 | u | -4.0 | -10 | 0 |
| O=C(COC(=O)[C@@H]1CC(O)CN1S(=O)(=O)c1ccc2c(c1)OCCO2)Nc1cc(F)ccc1F (some centres not stated) | -3% | -2 | u | 2.7 | -1 | 8 |

(list continues)
| molecule | gsp antag | D2 potentiator | gsp ag | D2 ag | Six1-Eya2 blk | CtBP-E1A inh |
| --- | --- | --- | --- | --- | --- | --- |
| COc1ccc(N2CCN(C(=O)c3ccc(C)c(NC(=O)C4=C(C)OCCS4)c3)CC2)cc1 | -3% | -8 | -5% | -2.9 | -8 | -16 |
| CCOC(=O)c1cc(C(=O)OCC)c(=O)[nH]c1SCc1ccccc1 | -20% | 0 | 0% | 5.4 | 16 | 1 |
| Cc1c(C)n(CC(O)CN2CCN(C)CC2)c2ccccc12 (configuration not stated) | 1% | -7 | -34% | -0.6 | -6 | x |
| CCN1C(=O)c2ccccc2Sc2ccc(C(=O)O)cc21 | -13% | 0 | -21% | -1.2 | 2 | 5 |
| COc1cc(/C=N/NC(=O)CN2CCCCC2)ccc1OCc1ccc(Br)cc1 | 4% | -11 | -12% | -0.1 | 3 | 1 |
| COc1ccccc1-c1nn(-c2ccccc2)cc1C(=O)N1CCN(C(=O)c2ccco2)CC1 | -5% | -12 | 6% | 1.3 | 1 | -19 |
| CN(C)CC/C=C1/c2ccccc2CS(=O)(=O)c2ccccc21 | 5% | -3 | 7% | 2.9 | 0 | -4 |
| CCCC(O)(CCN1CCOCC1)c1ccc(Cl)cc1 (configuration not stated) | 2% | -7 | -11% | -3.2 | 14 | 9 |
| CCOc1ncccc1C(=O)N1CCCSC1=Nc1ccccc1OC | 1% | 1 | 1% | -6.5 | 2 | -3 |
| Cc1cccc(NC(=S)N(CCN(C)C)Cc2cccs2)c1 | 7% | -11 | 1%[15.4 µM] | -0.3 | -8 | -5 |
| O=C(O)c1ncn(Cc2ccc(Br)cc2)c1C(=O)O | 4% | -4 | -17% | 2.8 | -30 | -17 |
| CCCCCCCCCS(=O)(=O)Nc1cc(C)ccn1 | 2% | -11 | 13% | -2.2 | 13 | 7 |
| COC(=O)CN=C1OC(=O)N2C(=O)C3=C4[C@@H](C[C@H]5C(=O)N(c6ccccc6)C(=O)[C@H]5[C@H]4[C@@]12Cc1ccccc1)[C@H]1C(=O)N(c2ccccc2)C(=O)[C@H]1[C@H]3C | 7% | -4 | 9% | -3.2 | 2 | x |
| Cc1nnc(SC(C)C#N)n1-c1ccccc1 (configuration not stated) | 10% | -8 | 0% | 0.1 | 1 | 2 |
| Cc1ccnc(NC(=O)CS(=O)(=O)c2ccccc2)c1 | 5% | -3 | u | -3.2 | -1 | 6 |
| O=C(CSc1nc2ccccc2n1Cc1ccccc1)N/N=C/c1ccco1 | -9% | -6 | -1% | 0.0 | -18 | -18 |
| O=C(NC(=S)Nc1ccc(N2CCCCC2)cc1)c1ccc2c(c1)OCCO2 | 8% | -1 | -16% | -2.2 | -15 | -7 |
| CCn1c(C)cc(/C=C2/NC(=O)N(CC(=O)Nc3cccc(C)c3)C2=O)c1C | -7% | -13 | 8% | -2.2 | -6 | -11 |
| O=C(Cc1ccccc1)NN1C(=O)C2C3C=CC(C3)C2C1=O (configuration not stated) | 1% | 4 | 1% | -2.3 | -4 | 11 |
| COc1ccccc1/C=C\C(=O)NCC(=O)N/N=C(/C)c1cccc([N+](=O)[O-])c1 | -14% | -12 | 20% | -2.3 | -20 | -6 |

Five successive entries already listed, quoted:
| molecule | gsp antag | D2 potentiator | gsp ag | D2 ag | Six1-Eya2 blk | CtBP-E1A inh |
| --- | --- | --- | --- | --- | --- | --- |
| O=C(CSc1nc2ccccc2n1Cc1ccccc1)N/N=C/c1ccco1 | -9% | -6 | -1% | 0.0 | -18 | -18 |
| O=C(NC(=S)Nc1ccc(N2CCCCC2)cc1)c1ccc2c(c1)OCCO2 | 8% | -1 | -16% | -2.2 | -15 | -7 |
| CCn1c(C)cc(/C=C2/NC(=O)N(CC(=O)Nc3cccc(C)c3)C2=O)c1C | -7% | -13 | 8% | -2.2 | -6 | -11 |
| O=C(Cc1ccccc1)NN1C(=O)C2C3C=CC(C3)C2C1=O (configuration not stated) | 1% | 4 | 1% | -2.3 | -4 | 11 |
| COc1ccccc1/C=C\C(=O)NCC(=O)N/N=C(/C)c1cccc([N+](=O)[O-])c1 | -14% | -12 | 20% | -2.3 | -20 | -6 |

The main list resumes, starting 5 compounds before the break.
| molecule | gsp antag | D2 potentiator | gsp ag | D2 ag | Six1-Eya2 blk | CtBP-E1A inh |
| --- | --- | --- | --- | --- | --- | --- |
| O=C(CSc1nc2ccccc2n1Cc1ccccc1)N/N=C/c1ccco1 | -9% | -6 | -1% | 0.0 | -18 | -18 |
| O=C(NC(=S)Nc1ccc(N2CCCCC2)cc1)c1ccc2c(c1)OCCO2 | 8% | -1 | -16% | -2.2 | -15 | -7 |
| CCn1c(C)cc(/C=C2/NC(=O)N(CC(=O)Nc3cccc(C)c3)C2=O)c1C | -7% | -13 | 8% | -2.2 | -6 | -11 |
| O=C(Cc1ccccc1)NN1C(=O)C2C3C=CC(C3)C2C1=O (configuration not stated) | 1% | 4 | 1% | -2.3 | -4 | 11 |
| COc1ccccc1/C=C\C(=O)NCC(=O)N/N=C(/C)c1cccc([N+](=O)[O-])c1 | -14% | -12 | 20% | -2.3 | -20 | -6 |
| Cc1cccn2cc(-c3ccccc3)nc12 | -16% | -16 | 25% | -2.7 | 1 | -1 |
| CCCNC(=O)COC(=O)c1ccc(OCC(=O)Nc2ccccc2OC)c(OC)c1 | 0% | -16 | 10% | -2.8 | -1 | 0 |
| COc1ccc(N2CCN(C(CNS(=O)(=O)c3cc(F)ccc3F)c3cccnc3)CC2)cc1 (configuration not stated) | -8% | 2 | 0% | -6.9 | -14 | -10 |
| COC(=O)c1ccccc1S(=O)(=O)N1CCC(C(=O)NCC2CCCO2)CC1 (configuration not stated) | 22% | -5 | -4% | -3.9 | 7 | 1 |
| CCCOC(=O)Nc1sc2c(c1C(N)=O)CCCC2 | -34% | -3 | 29%[15.4 µM] | -1.0 | 6 | -8 |
| CN(C)/C=N/C1=C(C#N)C(c2cccs2)c2ccc3ccccc3c2O1 (configuration not stated) | 11% | -3 | 5%[15.4 µM] | 0.3 | -2 | -2 |
| Cc1nnc(SCC(=O)NCc2ccco2)n1-c1ccccc1 | 14% | -6 | 21% | -1.4 | 4 | -7 |
| CC(=O)Nc1ccc(NC(=O)C(NS(=O)(=O)c2cccc3nsnc23)C(C)C)cc1 (configuration not stated) | 2% | 0 | u | 0.5 | 2 | 0 |
| Cc1cc(C)c(C(=O)Nc2ccc(C)c(C)c2)c(CC(C)(C)C(=O)O)c1 | 5% | 1 | -11%[15.4 µM] | 0.7 | -2 | -11 |
| CSc1nc(N(C)C)nc(N2CC(=O)N(CCNS(=O)(=O)c3ccc(C)cc3)C2=N)n1 | -14% | -3 | 12%[15.4 µM] | -3.4 | -10 | 5 |
| Cc1cccc(C)c1OCCCCc1c(C)n[nH]c1C | -19% | -7 | 2% | -2.4 | 3 | 7 |
